KCNQ2 pot – KCNQ2 (rat) channel potentiation. O88943. CHO-K1 KCNQ2, FluxOR thallium flux fluorescence; stronger effect = higher value. B-score at 10 µM. 310,000 compounds, 0.54% hits. AID 2239;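 active means fluorescence ratio B-score at least 3 SD of library B-scores, with initial fluorescence B-score within 3 SD, cut at about 5.3 in these data; same plate scores as AID 2156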;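 further: B-score of peak minus minimum over baseline fluorescence ratio after K+ and Tl+ stimulus; positive B-score means potentiation of KCNQ2 with more thallium influx and brighter signal; only the inactives scoring about 0 or higher are listed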
Target sequence (O88943 whole entry, looked up): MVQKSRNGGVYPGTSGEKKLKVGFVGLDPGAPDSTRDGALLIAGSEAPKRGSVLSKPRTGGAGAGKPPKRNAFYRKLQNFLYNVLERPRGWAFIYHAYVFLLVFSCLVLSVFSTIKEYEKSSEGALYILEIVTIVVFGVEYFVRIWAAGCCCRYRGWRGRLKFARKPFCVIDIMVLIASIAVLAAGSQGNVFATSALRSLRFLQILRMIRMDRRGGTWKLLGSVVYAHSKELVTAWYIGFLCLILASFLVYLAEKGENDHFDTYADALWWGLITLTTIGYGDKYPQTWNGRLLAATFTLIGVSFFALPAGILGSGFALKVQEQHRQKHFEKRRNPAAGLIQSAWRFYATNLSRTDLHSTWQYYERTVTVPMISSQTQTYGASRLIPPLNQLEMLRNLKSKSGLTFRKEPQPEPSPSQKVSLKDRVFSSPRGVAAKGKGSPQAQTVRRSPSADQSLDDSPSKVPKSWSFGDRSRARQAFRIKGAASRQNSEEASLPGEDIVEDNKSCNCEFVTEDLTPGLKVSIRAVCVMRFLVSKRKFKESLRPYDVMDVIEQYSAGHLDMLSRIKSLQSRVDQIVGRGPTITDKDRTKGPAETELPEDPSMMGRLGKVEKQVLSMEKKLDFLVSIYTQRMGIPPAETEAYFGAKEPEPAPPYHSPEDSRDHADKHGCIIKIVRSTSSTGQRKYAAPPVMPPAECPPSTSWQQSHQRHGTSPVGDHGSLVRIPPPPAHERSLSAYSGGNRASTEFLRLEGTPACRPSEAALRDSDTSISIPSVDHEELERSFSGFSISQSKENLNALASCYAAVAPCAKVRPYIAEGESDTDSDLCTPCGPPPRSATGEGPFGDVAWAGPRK
KCNQ2 pot baseline – second read-out of KCNQ2 pot, no call of its own (marks repeat the call); B-score; compound at 10 µM; measured here: initial fluorescence intensity artifact check;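 brightness before thallium and not channel activity; 0 = typical well and far values either way flag optical interference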
* marks the source's active call; other numbers are inactive results.

A first look, 4 compounds:
SMILES	KCNQ2 pot	KCNQ2 pot baseline
CCN(CC(=O)Nc1ccccc1C(F)(F)F)C(=O)CCc1ccccc1	0.14	0.22
O=C(O)c1ccc(CSc2nc3ccc(N4C(=O)C5C6C=CC(C6)C5C4=O)cc3s2)cc1 (stereo not drawn)	0.87	0.03
Fc1ccccc1OCCCCn1cncn1	0.77	-0.84
COCCn1c(SCC(=O)NC2CCCC2)nc2c(c1=O)SCC2	1.4	1

All compounds of this part (from the top)
SMILES	KCNQ2 pot	KCNQ2 pot baseline
CCN(CC(=O)Nc1ccccc1C(F)(F)F)C(=O)CCc1ccccc1	0.14	0.22
O=C(O)c1ccc(CSc2nc3ccc(N4C(=O)C5C6C=CC(C6)C5C4=O)cc3s2)cc1 (stereo not drawn)	0.87	0.03
Fc1ccccc1OCCCCn1cncn1	0.77	-0.84
COCCn1c(SCC(=O)NC2CCCC2)nc2c(c1=O)SCC2	1.4	1
O=C(CSc1nnc(-c2cccc(Cl)c2)o1)Nc1ccc2c(c1)OCCO2	0.49	0.04
CCC(=O)NNC(=O)CCC(=O)Nc1ccccc1	0.3	-3.2
O=C(Nc1cccc(O)c1)c1cccc(C(=O)Nc2cccc(O)c2)c1	0.64	-1.7
CCOc1ccc(C(=O)C[n+]2cccc3cc(C)ccc32)cc1	0.01	1.9
O=C(NCc1ccc(Cl)c(Cl)c1)c1ccco1	0.93	-0.1
NC(=O)COC(=O)c1ccc(-c2ccccc2)cc1	2.1	1.2
CN(CCc1ccccc1)C1CCCN(C(=O)Cn2cccn2)C1 (stereo not drawn)	0.04	-0.67
COc1ccc(-c2csc(N(CCCN(C)C)C(=O)c3cccs3)n2)cc1	1.6	-0.45
CCN1CCN(C(=O)c2ccccc2N(Cc2ccccc2)S(=O)(=O)c2ccc(OC)cc2)CC1	0.85	-0.73
CCn1ncc(CN2CCN(Cc3ccc(OC)c(C)c3C)C(CCO)C2)c1C (stereo not drawn)	2.5	-1.4
COc1ccc2oc(C(=O)OCC(=O)NC(C)c3ccccc3)c(C)c2c1 (stereo not drawn)	0.34	-0.68
CCOCc1nc(C)c(Cl)c(NS(=O)(=O)c2ccc(N)cc2)n1	0.31	1.1
C=CCn1c(SCC(=O)Nc2c(C)cccc2C)nnc1-c1ccncc1	1.1	0.06
Cc1ccc(-c2[nH]ncc2C(=O)c2ccccc2C)c(O)c1	0.47	-0.36
Cc1cccc(C)c1OCC(=O)N/N=C/c1ccncc1	1.3	1.1
CN(CC(=O)Nc1ccccc1Cl)C(=O)COC(=O)Cc1ccc(F)cc1	0.8	1.1
CN(C)N1C(N)=C(C#N)C(c2cccc([N+](=O)[O-])c2)C2=C1CC(C)(C)CC2=O (stereo not drawn)	2	2
Cc1cc2[nH]c(=O)c3ccccc3n2n1	0.15	1.9
Cc1c(C2N3CC4(C)CN2CC(C)(C3)C4=O)c2ccccc2n1C (stereo not drawn)	1.1	-0.37
CCOc1ccc(NC(=O)CCn2nc(C)c(S(=O)(=O)N3CCCCC3)c2C)cc1	0.07	-0.77
CCN(CC)CCOC(=O)C1(c2ccccc2)CCOCC1	1.1	1
Following part:
SMILES	KCNQ2 pot	KCNQ2 pot baseline
Cc1nnc(NC(=O)C(C)Sc2nncn2C)s1 (stereo not drawn)	1.3	-0.58
Cn1c(SCc2nc(-c3ccc(Cl)cc3)no2)nnc1-c1ccco1	0.12	-0.14
CCCN(CCO)Cc1cccc(Br)c1	1.8	-0.03
CCC(c1nnc(SCC(=O)Nc2ccc(S(N)(=O)=O)cc2)n1Cc1ccccc1)N(C)C (stereo not drawn)	0.56	-0.78
CCNc1nc(NCC)nc(N(C)N)n1	1.6	0.76
COc1ccc(SCCCn2c(=O)c3c(ncn3C)n(C)c2=O)cc1	0.33	0.27
Cc1ccc(C(=O)Nc2ccc(C(F)(F)F)n(C)c2=O)cc1	0.33	0.39
CC(=O)c1ccc(N2CCN(c3ccc(S(=O)(=O)NCCCN(C)C)cc3[N+](=O)[O-])CC2)cc1	3.3	-0.47
CC(C)CCNC(=O)C1CCC(CNc2c(N3CCC(C)CC3)c(=O)c2=O)CC1 (stereo not drawn)	0.6	-0.03
CCN1C(=O)[C@H]2[C@@H](c3ccc(-c4ccccc4)cc3)N[C@@](C)(C(=O)OC)[C@H]2C1=O	1.2	-0.19
Cc1ccc(-c2nnn(CC(=O)N(CC(=O)NC3CCCC3)c3cccc(F)c3)n2)o1	0.08	0.03
COc1cc2c3nc4n(c(=O)c3n(CC(=O)NCC3CCCO3)c2cc1OC)CCS4 (stereo not drawn)	0.15	0.32
CC1(C)CC(=O)C2=C(C1)OC(N)=C(C#N)C2C1C=CCCC1 (stereo not drawn)	0.02	0.29
Cn1ncc2c(NNC(=O)c3ccc(Cl)cc3Cl)ncnc21	0.64	-1
O=C(NCc1ccco1)c1cccc2c1C(=O)N(C1CCCCC1)C2	0.33	-1.3
CCN(C(=O)CN1CCCCC1)C1(C)C(=O)c2ccccc2C1=O	1.4	-1.8
CCC1CC2(C)NC(=O)c3c(sc4c3CC(C)(C)OC4)N2C1=O (stereo not drawn)	0.01	1
COc1ccc(CN2C(=O)c3cccnc3C2Nc2cc(Cl)c(OC)cc2OC)cc1 (stereo not drawn)	0.11	-0.25
COC(=O)Cc1ccc(NC(=S)N2CCCC(C)C2)cc1 (stereo not drawn)	1.6	0.49
CCC(C)(C)NC(=O)c1ccc2c(c1)N(CC(=O)N1CCCC1)C(=O)C(C)(C)O2	0.69	0.7
CCCCn1c(N)nc2ccccc21	2.3	0.11
O=C(CCN1C(=O)/C(=C/c2ccccc2F)SC1=S)NCCc1ccc(O)cc1	0.68	-1
Cc1ccnc(NC(=O)c2cc3ccccc3oc2=O)c1	0.04	0.36
CCCCNC(=O)c1ccc2c(c1)S(=O)(=O)c1ccccc1C2=O	0.79	0.03
COC(=O)Cc1c(C(=O)OC)nnn1-c1ccc(OC)cc1	0.99	-1.5
(cont.)
SMILES	KCNQ2 pot	KCNQ2 pot baseline
CCCN(CCC(=O)Nc1ccccc1F)CC1CC1	1.4	0.05
Cc1cc(C)cc(OCCNC(=O)CCc2ccccc2)c1	0.37	2.2
CCN1CCCC1CN(Cc1cc2cc(C)cc(C)c2[nH]c1=O)C(=O)Nc1ccccc1OC (stereo not drawn)	0.85	-1.6
c1ccc(-c2ccccc2OCCN2CCCCC2)cc1	1.2	-0.74
O=C(c1ccccc1)c1ccc2c(c1)OCCCO2	0.65	1.1
CC(C)C(NC(=O)c1ccccc1NC(=O)c1ccccc1)C(=O)NNC(=O)c1ccncc1 (stereo not drawn)	0.18	0.16
Cc1ccc(N2C(=O)C3C4C=CC(CC4)C3C2=O)cc1Br (stereo not drawn)	0.5	-2.5
COc1ccc(CNCC(O)(c2ccccc2)c2ccccc2)cc1OC	0.49	1.1
C=CCn1c(SCn2nnc3ccccc3c2=O)nnc1C1CCCCC1	0.3	0.56
OCCC1CN(Cc2ccccn2)CCN1C1CCCC1 (stereo not drawn)	1.8	-0.39
COC(=O)c1ccc(CN(c2ccccc2Cl)S(C)(=O)=O)cc1	0.65	-0.61
CCc1ccc(-c2cc(C)no2)cc1S(=O)(=O)N1CCCN(Cc2ccc(F)cc2)C1	0.02	0.86
Cn1nc(-c2ccccc2F)c2cc(C(=O)N3CCN(C(=O)c4ccco4)CC3)sc21	0.12	-1.3
N/C(=N\OC(=O)c1cccs1)c1ccc(Cl)cc1	0.3	1
COC(=O)c1ccc2c(=O)n3c(nc2c1)SCC(c1ccccc1)=N3	0.64	-0.02
CCCc1cc(=O)[nH]c(SCC(=O)c2cc(C)n(CC(F)(F)F)c2C)n1	6.4*	0.29*
Nc1ccc(Br)c2c1C(=O)c1ccccc1C2=O	0.34	-1.5
Cc1ccc(NC(=O)CSCC(=O)N2CCN(Cc3ccc4c(c3)OCO4)CC2)cc1	0.24	-0.17
Cc1c(Cl)cccc1Nc1nc(N)nc(CSC(=S)N2CCOCC2)n1	0.02	0.07
CC(Sc1ccccc1)C(=O)NCC(c1ccco1)N1CCCCC1 (stereo not drawn)	0.23	2.5
CC(=O)Nc1cc2c(cc1C(=O)c1ccc(C)cc1)OCCO2	0.87	-0.48
CCOc1ccc(N2C(=O)CC(Cc3ccccc3OC)C2=O)cc1 (stereo not drawn)	1.6	0.95
Cn1cnnc1Sc1ccc(CN2CCN(C3CCCC3)C(CCO)C2)o1 (stereo not drawn)	0.31	-0.8
O=C(O)COc1cccc2nsnc12	0.15	1.5
CC1(C)NC(=O)N(CCCCOc2ccc3c(c2)CCC3)C1=O	0.02	0.02

Arranged by heavy-atom count (falling): some entries from above
SMILES	KCNQ2 pot	KCNQ2 pot baseline
CC(C)C(NC(=O)c1ccccc1NC(=O)c1ccccc1)C(=O)NNC(=O)c1ccncc1 (stereo not drawn)	0.18	0.16
CCc1ccc(-c2cc(C)no2)cc1S(=O)(=O)N1CCCN(Cc2ccc(F)cc2)C1	0.02	0.86
Cn1cnnc1Sc1ccc(CN2CCN(C3CCCC3)C(CCO)C2)o1 (stereo not drawn)	0.31	-0.8
Cc1c(Cl)cccc1Nc1nc(N)nc(CSC(=S)N2CCOCC2)n1	0.02	0.07
COC(=O)c1ccc2c(=O)n3c(nc2c1)SCC(c1ccccc1)=N3	0.64	-0.02
COC(=O)c1ccc(CN(c2ccccc2Cl)S(C)(=O)=O)cc1	0.65	-0.61
Cc1cc(C)cc(OCCNC(=O)CCc2ccccc2)c1	0.37	2.2
OCCC1CN(Cc2ccccn2)CCN1C1CCCC1 (stereo not drawn)	1.8	-0.39
CCCN(CCC(=O)Nc1ccccc1F)CC1CC1	1.4	0.05
O=C(c1ccccc1)c1ccc2c(c1)OCCCO2	0.65	1.1
N/C(=N\OC(=O)c1cccs1)c1ccc(Cl)cc1	0.3	1
O=C(O)COc1cccc2nsnc12	0.15	1.5

Remaining list, next part.
SMILES	KCNQ2 pot	KCNQ2 pot baseline
CCCCn1cnc2sc(-c3ccccc3)cc2c1=O	0.71	-0.66
O=C(NCCCCc1ccccc1)c1ccc(F)cc1	1.6	-1.1
Cc1ccc(C(=O)Nc2ccccc2)cc1S(=O)(=O)N1CCN(C)CC1	0.45	-1.3
Cc1ccc(O)c(C(=O)c2cnc3c(c2)c(C)nn3C)c1	0.27	-2.9
Cc1cc(SCC(=O)OC/C(O)=C(\C#N)c2nc3ccccc3[nH]2)c(C)cc1Br	0.53	0.7
COc1ccc(C(=O)OCc2cc3cccc(C)c3[nH]c2=O)cc1	0.08	-1.6
COc1cc(S(=O)(=O)N2CCOCC2)ccc1NC(=O)COC(=O)C12CC3CC(CC(C3)C1)C2	0.9	-0.36
COc1ccccc1-c1ccc(/C=N/O)o1	0.3	-1.1
COc1ccc(/C=C/C(=O)O)cc1S(=O)(=O)NC1CCS(=O)(=O)C1 (stereo not drawn)	1.4	-0.53
CC(C)NC(=O)c1ccccc1NC(=O)CS(=O)(=O)Cc1ccccc1	0.56	1.1
O=C1/C(=C/c2ccc(F)cc2)SC(=S)N1CCCC(=O)N1CCCCC1CCO (stereo not drawn)	0.17	0.18
O=C(NCCc1nnc2ccc(N3CCCCCC3)nn12)c1ccccc1	0.33	1
O=C(CNS(=O)(=O)c1cccs1)NCCc1ccc(Cl)cc1	0.06	0.37
Clc1cccc(NCc2nnc(SCc3ccccc3)o2)c1	22*	-1*
CCCCOC(=O)c1ccc(OC(=O)c2cccnc2)cc1	0.67	-2.2
COCC1CCN(C(=O)c2cc(COc3ccc(-n4cncn4)cc3)on2)CC1	0.88	1.2
FC(F)(F)c1ccccc1NC(=S)Nc1cccc(Cl)c1	0.39	-0.38
CCC(C)N1CCN(S(=O)(=O)Cc2ccccc2)CC1 (stereo not drawn)	0.74	1.4
CCN(CC)S(=O)(=O)c1ccc(NC(=O)c2nc3nc(C)cc(C)n3n2)cc1	1.2	-0.84
CCOC(=O)c1c(-c2ccccc2)nnn1-c1nc(OC)nc(N2CCOCC2)n1	1.1	-1.8
COCc1[nH][nH]c(=O)c1C=Nc1ccccc1	0.75	0.11
Cc1ccc(C)c(Nc2c(F)c(F)c(F)c(F)c2C(=O)O)c1	0.91	-0.06
COc1ccccc1NC(=O)c1c[nH]c2ccccc12	0.99	-1.6
Fc1cccc(Cl)c1/C=N/Nc1ccccn1	1.3	-0.31
CCCc1c(C(=O)N/N=C/c2ccc(C)s2)nnn1-c1nonc1N	0.06	-1.2
(listing goes on)
SMILES	KCNQ2 pot	KCNQ2 pot baseline
Cc1ccc2cc(CN(c3ccccc3)S(=O)(=O)c3ccccc3)c(=O)[nH]c2c1	1.6	-0.98
CCCCOc1ccc(N=Cc2ccc[nH]2)cc1	1	0.85
Cc1nc2sc(C(c3cccs3)N3CCN(Cc4ccccc4)CC3)c(O)n2n1 (stereo not drawn)	1	0.85
O=c1[nH]c(CSc2nnc(-c3ccccc3)n2-c2ccccc2)nc2ccccc12	0.72	-2
Cc1c(C2Nc3ccccc3C(=O)N2O)cnn1C (stereo not drawn)	0.21	0.02
N/C(=N\O)C1COc2ccccc2O1 (stereo not drawn)	0.06	-0.7
CCCCNC(=O)CN(C1CCCCC1)S(C)(=O)=O	1.3	-0.33
COc1ccc(S(=O)(=O)N2CCC(C(=O)NCC3CCCCC3)CC2)cc1	1.2	1.3
O=C(COc1ccccc1Cl)Nn1cnnc1	1.3	0.32
Cc1cc(NC(=O)c2cc(C3CC3)on2)n(-c2ccccc2)n1	0.35	-0.01
CN(C(=O)c1cccs1)c1ccccc1C(=O)O	0.92	-1.5
O=c1cccccc1NN=C1CCCCC1	0.5	-1.4
C=CCc1ccc(OCCCCNC(C)CC)c(OC)c1 (stereo not drawn)	0.25	1.3
COc1ccc(C2/C(=C(/O)c3ccc(C)cc3)C(=O)C(=O)N2C)cc1 (stereo not drawn)	1.2	-0.12
CC(C)Oc1ccc(/C=C(/NC(=O)c2ccccc2)C(=O)NC(Cc2ccccc2)C(=O)O)cc1 (stereo not drawn)	1.4	-1
COC(=O)c1cccc(NC(=O)C2COc3ccccc3O2)c1C (stereo not drawn)	0.26	0.97
COc1ccc(NC(=O)C2CCN(S(=O)(=O)c3ccc4c(c3)CC(C)N4C(C)=O)CC2)c(OC)c1 (stereo not drawn)	0.39	-0.52

An excerpt. The share of hits here may be higher or lower than overall.
